Screening data (PubChem BioAssay)
RanGTP-Impb inh: inhibitors of RanGTP-importin-beta interaction, primary screen, biochemical, FRET, CFP-Ran, YFP-importin-beta, homogeneous | cell-free CFP-Ran/YFP-importin-beta FRET ratio | inhibition, % (no concentration beside the values) | actives 1.1% (n = 300,000);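 active = most replicates above 15%; inconclusive = exactly half above 15%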;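 also: 0% = DMSO wells and 100% = Ran loaded with GDP instead of GTP; wells of about 40 µL received 100 nL stock; the first replicate is given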
Beta cell apopt: blocks beta cell apoptosis; INS-1E cytokine-induced death, ATP luminescence, 48 h; percent of positive-control rescue, neutral wells zero; protection from apoptosis, % (test concentration not listed); actives 0.8% (n = 300,000);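 active = all replicates at 75% or more, or half of them and the mean; inconclusive = half reach 75% but not the mean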;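 also: 0% = cytokine-treated negative control wells and 100% = positive control rescue; higher means more ATP so stronger rescue from cytokine killing; wells of about 40 µL received 100 nL stock; the first replicate is given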
LANA-H2A inh: blocks KSHV LANA binding to histone H2A/H2B; Q9QR71; cell-free LANA-H2A/H2B peptide, fluorescence polarization; inhibition, % (no concentration beside the values); actives 0.6% (n = 320,000); AID 2629; in the data active = inhibition mostly above about 10%, no sharp cut-off; inactive = mostly below about 6.7%;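 also: stock transfer was 7.5 nL into about 10 µL; 0% = median of vehicle wells and 100% = median of positive control wells; one replicate is shown; the record names a cut of 25% in any replicate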
Target sequence (Q9QR71 whole entry, looked up): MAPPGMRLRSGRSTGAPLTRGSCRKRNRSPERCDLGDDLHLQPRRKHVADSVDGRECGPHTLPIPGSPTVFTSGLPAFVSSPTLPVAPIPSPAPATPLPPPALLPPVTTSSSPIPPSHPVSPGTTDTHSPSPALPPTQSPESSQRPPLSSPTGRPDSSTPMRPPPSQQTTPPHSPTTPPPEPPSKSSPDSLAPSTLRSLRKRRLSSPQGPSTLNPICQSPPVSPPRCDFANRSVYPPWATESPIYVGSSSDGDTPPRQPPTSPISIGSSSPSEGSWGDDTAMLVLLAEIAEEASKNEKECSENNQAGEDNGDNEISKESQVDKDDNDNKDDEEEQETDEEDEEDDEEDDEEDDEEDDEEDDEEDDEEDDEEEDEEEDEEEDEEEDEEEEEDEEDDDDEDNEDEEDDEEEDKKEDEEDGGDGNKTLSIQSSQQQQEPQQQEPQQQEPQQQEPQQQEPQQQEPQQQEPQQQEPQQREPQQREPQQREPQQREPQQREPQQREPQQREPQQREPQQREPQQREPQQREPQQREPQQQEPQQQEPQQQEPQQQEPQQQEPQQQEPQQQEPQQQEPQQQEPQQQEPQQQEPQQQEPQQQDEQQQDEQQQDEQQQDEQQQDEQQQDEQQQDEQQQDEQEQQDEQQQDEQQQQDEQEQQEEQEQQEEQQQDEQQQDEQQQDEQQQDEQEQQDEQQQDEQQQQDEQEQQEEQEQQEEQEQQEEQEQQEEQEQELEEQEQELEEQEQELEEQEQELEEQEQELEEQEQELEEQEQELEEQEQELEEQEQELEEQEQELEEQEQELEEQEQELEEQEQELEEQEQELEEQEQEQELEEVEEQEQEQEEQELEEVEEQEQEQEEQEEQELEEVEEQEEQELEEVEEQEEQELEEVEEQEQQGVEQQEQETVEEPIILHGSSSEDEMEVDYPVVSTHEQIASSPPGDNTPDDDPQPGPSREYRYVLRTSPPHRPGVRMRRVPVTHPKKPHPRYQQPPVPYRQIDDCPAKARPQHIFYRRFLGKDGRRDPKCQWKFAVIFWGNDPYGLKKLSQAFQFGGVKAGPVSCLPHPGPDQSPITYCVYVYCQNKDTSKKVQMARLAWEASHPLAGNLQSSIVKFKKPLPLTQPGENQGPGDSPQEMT
AF4-AF9 inh: inhibitors of human MLL-AF4/AF9 interaction | P42568 | AlphaScreen, biotin-AF4 peptide binding to FLAG-AF9 | inhibition, % at 10 µM | actives 0.47% (n = 350,000) | AID 651704;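 active = every replicate reaching a set inhibition limit, whatever the replicate mean, cut at about 25% in these data; inconclusive = mean inhibition reaches that limit but some replicates miss it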;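 also: 0% = plate neutral control median and 100% = total signal loss; the record names both 10 and 1 µM as test concentration; the first replicate is given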
T cruzi inh: T. cruzi replication inhibition. AID 1885. actives 1.4% (n = 300,000). inhibition, % (concentration not given with the values). T. cruzi beta-gal in NIH3T3, luminescence, 90 h;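 active = mean inhibition across valid replicates above about 55%, limit read from the data; inconclusive = mean below that limit but half or more replicates reach it; inactive = mean below it, under half of replicates reach it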;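 also: signal also drops with host cell toxicity which is not excluded here; 0% = plate median of DMSO wells and 100% = zero luminescence signal; higher percent means less beta-gal luminescence so fewer parasites; stock transfer was 50 nL into about 50 µL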
Calb FLC: C. albicans growth modulation with fluconazole. C. albicans CaCi-2 (fluconazole-resistant clinical isolate) + fluconazole, Alamar Blue growth, 48 h. growth inhibition, % (concentration not given with the values). actives 0.57% (n = 300,000);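 active = most replicates above 75%; inconclusive = exactly half above 75%; inactive = most below 75%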;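 also: all wells also contain fluconazole at 8 µg/ml as a sub-toxic cotreatment; 0% = median of DMSO wells and 100% = median of geldanamycin control wells; wells of about 8 µL received 7.5 nL stock; the first replicate is given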
Vif A3G: inhibitors of Vif binding to APOBEC3G peptide, primary screen, biochemical, TR-FRET, GST-Vif 1-94, biotin-A3G peptide, dose response retest (AID 1117319). inhibition, %; hits with a dose series show IC50 in µM. actives 0.57% (n = 260,000). TR-FRET GST-Vif / biotin-A3G peptide binding; higher % means a stronger effect; test concentration not given here; strong numbers were not always called active;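 active = above the screen mean plus three standard deviations and confirmed in dose response; inconclusive = results disagree or hit not tested in dose response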;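 also: Vif residues 1-94 fused to GST binding biotinylated APOBEC3G peptide 110-148; 0% = full assay without inhibitor and 100% = GST in place of GST-Vif; retest series ran down from 100 µM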
A1 inh: inhibitors of the anti-apoptotic protein A1, read as caspase activation; MEF A1-2A-BIM cells, Caspase-Glo 3/7 luminescence, 3 h; percent of clofoctol response, vehicle zero; caspase activation, % (test concentration not listed); actives 0.066% (n = 330,000);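 active = over half of replicate activation scores above 10%, or exactly half above 10 with the replicate mean above 10; inconclusive = replicate mean below 10 yet half the replicates above 10; inactive = over half of replicates below 10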;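 also: wells of about 30 µL received 50 nL stock; many hits fall short of the cut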
Active calls of the source: *; ? = inconclusive; . = not tested or not shown; & = joins results of further samples.

SMILES	RanGTP-Impb inh	Beta cell apopt	LANA-H2A inh	AF4-AF9 inh	T cruzi inh	Calb FLC	Vif A3G	A1 inh
Cc1c(C(=O)NCCC2=CCCCC2)cccc1[N+](=O)[O-]	?	0	-0.3	.	-16	2	1%	0.2
CCN(CC)C(=S)SCC(=O)Nc1nc(-c2ccccc2)c(-c2ccccc2)o1	?	10	-1.3	-2.8	15	18	-7%	0.4
Cc1cccc(N2C(=O)CCC2=O)c1	-4.6	-6	4.1	.	-2	-6	.	-0.5
CC(C)=CCN1CCN(Cc2coc3ccc(C)cc3c2=O)CC1CCO (stereo not given)	5.6	.	-0.4	1.6	9	-8	.	0.0
CCOc1ccc(OCCCN(C)C)cc1	0.2	-5	-0.3	.	-4	0	-6%	0.7
O=C1c2ccccc2C(Nc2ccc3c(c2)OCCO3)N1c1ccccn1 (stereo not given)	-6.0	1	0.4	0.0	27	1	16%	0.4
COc1ccc(NC(=O)CC2C(=O)NC3CCCCC3N2C(=O)c2ccc(F)cc2)cc1 (stereo not given)	1.8	-6	0.2	-2.3	-5	-7	3%	0.2
CCCCOc1ccc(CSC(=N)N)cc1[N+](=O)[O-]	-0.3	-9	0.3	.	38	9	2%	-0.4
COc1ccc(S(=O)(=O)NC(C)C)cc1C(=O)N1CCOCC1	2.3	0	0.0	-9.9	-10	2	-1%	-0.7
CCCCNC(=O)C1CCN(Cc2ccc(OCc3ccccc3)c(OC)c2)CC1	-2.2	-2	-2.8	-2.6	-1	-9	.	0.6
COC(=O)c1ccc(C(=O)Nc2ccc(F)cc2)cc1	.	4	2.3	2.3	.	.	.	-12
Cc1ccc(S(=O)(=O)CCC(=O)OCC(=O)c2c[nH]c3ccccc23)cc1	-2.8	-2	5.0	1.0	-4	1	-2%	0.8
O=[N+]([O-])c1ccccc1S(=O)(=O)Nc1ccc(S(=O)(=O)Nc2nccs2)cc1	-0.2	-3	6.8	13	1	-3	.	-0.1
CC(Cc1c[nH]c2ccccc12)C(=O)N1CCN(c2ccccc2F)CC1 (stereo not given)	1.1	.	6.0	-0.6	-19	-5	10%	0.6
Cc1noc(C)c1CCC(=O)NC1CCCN(Cc2ccc(CC(C)C)cc2)C1 (stereo not given)	-2.2	1	-1.9	-3.5	52	-10	.	-0.2
COc1cccc(C(=O)c2c(C)c(CCC#N)n3ccccc23)c1OC	4.9	-1	3.8	4.0	-6	21	4%	-0.2
CN(CC(=O)Nc1ccc(Cl)c(C(F)(F)F)c1)C(=O)/C=C/c1ccco1	-1.9	-6	-3.2	.	-19	-38	-2%	0.1
CSCCC(NS(=O)(=O)c1ccc2c(c1)OCCO2)C(=O)N(C)Cc1ccc(F)cc1 (stereo not given)	3.3	1	2.5	4.4	3	2	5%	-1.3
Cc1cccc(N(CC(=O)NCCSc2ccccn2)S(=O)(=O)c2ccccc2)c1	-1.7	-2	-2.1	.	0	3	-10%	0.6
CCOC(=O)c1[nH]c(C)c(/C(O)=C2\C(=O)C(=O)N(CCN(C)C)C2c2ccc(C)o2)c1C (stereo not given)	-0.3	8	0.9	.	-11	-20	-1%	1.6
CC(C)C[C@H](NC(=O)NCc1ccccc1Cl)C(=O)O	4.5	2	3.1	.	-14	9	4%	0.5
O=C(c1cc(-c2cccc(Cl)c2)on1)N1CCN(c2ccc(F)cc2)CC1	0.8	-4	-6.0	-11	-20	8	.	0.1
O=C(COc1ccc(Br)cc1Cl)NC(=O)NCc1ccccc1	2.5	-5	-10	-2.2	13	?	.	0.7
COc1ccccc1CNC(=O)C(Cc1c[nH]c2ccccc12)NC(=O)OCc1ccccc1 (stereo not given)	-2.3	6	-8.3	.	28	11	0%	-0.8
CCN1CCCC1CNC(=O)c1cc(N)ccc1OC (stereo not given)	-1.9	.	-6.7	9.4	-3	-8	.	0.2
O=C1NC(=S)S/C1=C\c1ccc2ccccc2c1	-5.7	8	-3.1	-1.2	0	3	.	-5.1
CSCC[C@H](NC(=O)NCc1ccccc1F)C(=O)O	0.5	-8	0.0	.	-4	19	72%	-1.2
CC(=O)NC(CC(=O)Nc1cc(Cl)ccc1-n1cncn1)c1ccccc1 (stereo not given)	1.2	-7	-6.1	1.5	3	4	-6%	0.2
CC(C(=O)Nc1ccc2c(c1)OCCO2)N(C)Cc1c(F)cccc1Cl (stereo not given)	-2.6	9	-0.8	0.4	5	-9	-5%	0.1
COc1cc(NC(=S)NCCO)c(OC)cc1Cl	2.3	-2	0.4	-1.1	-4	-4	-2%	0.1
COc1cccc(OC)c1C(=O)NC(=S)Nc1ccc2oc(-c3ccncc3)nc2c1	4.7	.	5.4	1.4	4	40	1%	-1.0
O=C1/C(=C/c2cccs2)NC(=S)N1C1CC1	-2.4	-1	-0.2	4.8	-8	-8	-7%	-0.5
COc1cc(NC(=O)CSc2ccc(-c3cccnc3)nn2)cc(OC)c1	1.9	-8	1.8	-0.5	2	-3	.	-0.6
CC(C)[N+]1(C)[C@@H]2CC[C@@H]1CC(OC(=O)C(CO)c1ccccc1)C2 (stereo not given in full)	.	0	-4.0	5.7	.	.	.	-0.5
CC(=O)c1c(C)[nH]c(C(=O)NC2CCSc3ccccc32)c1C (stereo not given)	0.7	3	-7.1	5.4	-3	22	.	-0.7
CCCn1nc(NC(=O)C2CCCO2)c2cc3cc(C)ccc3nc21 (stereo not given)	56*	-5	0.0	.	11	-3	?	0.3
C/C(=C/c1oc2ccc(O)cc2c1[N+](=O)[O-])N(C)C	-3.9	-2	-2.0	.	-8	4	?	-4.6
C[C@H](CO)N1C[C@H](C)[C@@H](CN(C)C(=O)Nc2ccc(C(F)(F)F)cc2)Oc2ccc(NC(=O)Cc3ccccc3)cc2C1=O	.	-1	2.9	-3.5&2.0	.	.	.	-1.0
Cc1ccc(NS(=O)(=O)c2cccc3cccnc23)c(Cl)c1	-3.5	2	-3.3	-4.3	-2	64	4%	0.7
COc1ccc(N(CC(=O)N/N=C(\C)c2ccccc2)S(=O)(=O)c2ccccc2)cc1	0.4	-3	0.7	1.1	-2	7	-3%	-0.5
Cc1ccc(NC(=O)CSc2ccc(-c3ccco3)nn2)c(C)c1	.	-2	-1.1	-26	.	-17	-7%	0.3
O=C(NCc1c(Cl)cccc1Cl)c1ccc2nnsc2c1	0.1	0	-3.9	-2.7	13	2	-7%	0.0
Cc1cc2occ(CC(=O)OCC(=O)Nc3sc4c(c3C#N)CCC(C)C4)c2cc1C (stereo not given)	2.3	0	-1.5	0.0	-12	6	-6%	0.9
CC(=O)c1cccc(NC(=O)NN2CCN(C)CC2)c1	2.4	-5	-1.4	-1.2	47	1	0%	-0.2
Cc1c(Cl)cccc1NC(=S)NCC(c1cccnc1)N(C)C (stereo not given)	-0.5	0	0.8	-1.3	-2	11	-4%	-0.9
Fc1ccc(CSc2ncnc3nc[nH]c23)cc1	1.4	1	-1.7	-0.8	-8	4	-19%	-0.2
CCOc1ccc(OCc2ccc(C(=O)N3CCc4ccccc4C3)o2)cc1	-0.2	5	3.5	4.1	3	1	22%	0.4
O=C1c2ccccc2C2=Nc3ccccc3SC(c3ccc(Cl)cc3)C12 (stereo not given)	-5.5	95*	0.3	7.7	47	7	-5%	0.5
CC(=O)c1cccc(NC(=O)/C=C/c2ccc(S(=O)(=O)N3CCOCC3)cc2)c1	.	6	0.8	2.1	.	.	.	0.6
CNc1nc(SCC(=O)Nc2ccc(Cl)c(Cl)c2)nc(N2CCOCC2)n1	1.1	6	-3.4	0.6	17	12	0%	0.5
CN(C(=O)COC(=O)c1cc2ccccc2cc1O)c1ccccc1	.	-4	-1.9	3.6	.	.	.	0.1
CCOC(=O)C1=C(N)Oc2cc(C)oc(=O)c2C1c1cccnc1 (stereo not given)	-0.7	1	2.9	.	-14	7	7%	2.8
CC(C)(C)NS(=O)(=O)c1cnc(Cl)c(Cl)c1	9.7	-9	9.3	.	-12	9	1%	-0.6
COc1cc(S(=O)(=O)N(Cc2ccc(C)cc2)C2CCCCC2)ccc1-n1cnnn1	4.6	.	-2.2	2.4	36	4	7%	-0.5
CCCCN(C)S(=O)(=O)c1ccc(C(=O)Nc2nnc(-c3ccco3)o2)cc1	.	-3	-3.3	3.3	29	98*	-3%	0.3
CCOCCCNC(=O)c1ccccc1SC	-0.8	-8	0.7	.	-3	-3	10%	0.2
CC(C)c1cc(NCCCN2CCOCC2)n2c(nc3ccccc32)c1C#N	?	6	7.5	.	6	7	?	2.3
CCOc1ccc(CCNC(=O)CN2CCN(Cc3ccccc3C)C2=O)cc1OCC	-0.6	1	.	.	16	-12	-3%	0.4
CC(C)(C)CC(=O)NCCCCCCNC(=O)CC(C)(C)C	0.1	.	4.1	.	-4	53	2%	1.0
Cc1ccc(S(=O)(=O)CCC(=O)OCc2nc(N)nc(Nc3ccccc3C)n2)cc1	1.6	0	-1.9	-20	-8	-3	2%	0.2

Other compounds:
SMILES	RanGTP-Impb inh	Beta cell apopt	LANA-H2A inh	AF4-AF9 inh	T cruzi inh	Calb FLC	Vif A3G	A1 inh
Cc1cc(C(=O)COC(=O)c2ccc(N)cc2)c(C)n1-c1c(C)n(C)n(-c2ccccc2)c1=O	0.6	-1	-6.2	0.2	11	?	3%	1.0
Cc1noc(C)c1NC(=O)N(C)C[C@H]1Oc2c(NC(=O)C3CCCCC3)cccc2C(=O)N([C@H](C)CO)C[C@@H]1C	.	-2	0.0	-2.0&-1.2	.	.	-11%	0.8
Cc1ccc(OCCNC(=O)c2ccccc2N)cc1	-0.1	-3	-1.2	-2.7	-11	-8	9%	0.7
COc1ccc(C(=O)CCC(=O)NCc2cc(OC)cc(OC)c2)cc1	-3.9	-5	3.8	2.1	6	1	.	-1.0
COc1ccc2[nH]c(=O)c(CN(CCO)C(=O)c3ccccc3F)cc2c1	-0.2	-2	-3.1	.	-5	2	-2%	0.4
N#Cc1cccc(NCC(=O)Nc2ccc3c(c2)OCCO3)c1	0.5	12	0.0	5.3	-16	2	-11%	?
Cc1ccc2c(CN3CCN(Cc4ccccc4)CC3)cc(=O)oc2c1C	3.0	-6	-0.4	-4.8	57*	-12	.	1.7
CCCCC(NC(C)=O)c1nc2ccccc2[nH]1 (stereo not given)	8.2	-2	1.8	1.6	-14	-5	-1%	-0.3
Cc1cccc(NC(=O)CSc2ncnc3nc[nH]c23)c1	2.1	-5	2.3	.	-2	4	-2%	0.5
Cc1cccc(CC(=O)N2CCN=C2SCc2ccc([N+](=O)[O-])cc2)c1	-2.0	-2	0.6	1.9	-4	-9	.	1.2
Cc1ccc(N2C(=O)N3[C@H](c4ccc(F)cc4)[C@@H]4C(=O)N(C5CCCCC5)C(=O)[C@@H]4[C@]3(Cc3ccccc3)C2=O)cc1	6.6	.	-2.6	-1.5	18	10	.	-1.3
COc1ccc(NS(=O)(=O)c2cccc(C(=O)NNC(=O)c3ccc(O)c(Cl)c3)c2)cc1	.	-5	.	1.0	.	.	25%	-0.5
O=C(CSc1nc2ccccc2c(=O)n1-c1ccccc1)N1CCCC1	1.2	0	5.6	.	2	-13	2%	0.3
